BasE inh: inhibitors of Acinetobacter baumannii siderophore enzyme BasE. purified BasE, fluorescence polarization binding displacement. 0.1% of 84,000 active. AID 485350. inhibition, % (test concentration not listed);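 active means both replicates above 25% with normal brightness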;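 further: 0% = negative plate control signal and 100% = positive plate control signal; stock transfer was 100 nL into about 30 µL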
KSHV LANA nucl: LANA-nucleosome interaction inhibition; FITC-LANA1-23 / chicken nucleosome fluorescence polarization; active compounds read low; z-score (concentration not given with the values); 0.3% of 51,000 active; AID 720717;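 active means both repeat wells score below -2 in polarization z-score versus plate sample wells, excluding overly bright wells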;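 further: 100 nL library stock added to about 30 µL; numbers are from one replicate; some results filed as inactive read as strong as hits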
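Material: Purified chicken nucleosomes with FITC-labelled LANA N-terminal peptide (1-23) | Reagent: 50 nM FITC-LANA1-23 probe | Medium: TEN-BT buffer, pH 7.5 | Times: 10–45 min incubation at room temperature | Detection: Fluorescence polarization | Replication: Duplicates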
* marks the source's active call; other numbers are inactive results; . = not tested or not shown.

Values run as follows: KSHV LANA nucl | BasE inh
- CC(NC(=O)c1ccccc1)C(=O)OCn1nnc2ccccc2c1=O (stereo not given)
  . | 2.4
- CC(=O)N1CCc2cc(N=Cc3ccc(O)cc3)ccc21
  . | 1.4
- COc1ccc(C(C)C)cc1S(=O)(=O)N1CC(C)OC(C)C1 (stereo not given)
  -1.3 | 1.4
- COc1ccc(NC(=O)C2CCC(CNS(=O)(=O)c3cccc4nsnc34)CC2)cc1 (stereo not given)
  -1.5 | 0.9
- CC(C)(C)c1cc(C(=O)O)cc(C(C)(C)C)c1O
  -0.17 | -0.4
- COc1cc(C(=O)NC(=S)NN2CCN(C)CC2)cc(OC)c1OC
  . | 2.1
- Cc1cc(=O)[nH]c(SCC(N)=O)n1
  . | 0.5
- CCCCn1nc(CC(=O)O)c2ccccc2c1=O
  -0.27 | 0.8
- CCCn1cnc2sc3c(c2c1=O)CCCC3
  -1.2 | -21
- CC(CCC(=O)O)C1CCC2C3C(O)CC4CC(O)CCC4(C)C3CC(O)C12C (stereo not given)
  0.85 | -3.8
- Cn1c(SCCC(=O)O)nnc1-c1ccncc1
  -0.11 | -0.8
- C=CCn1c(Cc2cccs2)nnc1SCC(=O)NC1CC1
  0.71 | 1.0
- COC(=O)c1cc(S(=O)(=O)N2CCn3c2nc2ccccc23)c[nH]1
  -0.48 | 0.3
- CCOc1ccc(C(=O)NC(C(=O)N2CCN(C)CC2c2ccccc2)C(C)C)cc1 (stereo not given)
  . | 1.3
- COC(=O)CNC(=O)c1cccs1
  . | -4.0
- COc1ccc2nc(NN=c3c(=O)c4ccccc4c3=O)sc2c1
  . | 2.0
- O=C(NC1CCCCC1)c1ccc(Cn2cc(Br)cn2)o1
  0.41 | -2.5
- Cc1ccc(-c2cc(C(=O)N3CCCC3)[nH]n2)cc1C
  . | 3.6
- CN(C)/C=C(\C#N)c1nnc(-c2ccccn2)n1C
  . | -1.4
- CCOc1ccc2oc(C(C)(C)C)c(C(=O)OC)c2c1
  0.61 | -1.7
- COc1ccc(C)cc1NC(=O)COC(=O)c1sc2nc(C)[nH]c(=O)c2c1C
  . | 3.1
- Cn1c(=O)c2c(-c3ccc(Cl)cc3)n(CC3CCCO3)cc2n(C)c1=O (stereo not given)
  -0.38 | 0.1
- O=C(N/N=C/c1ccc(Cl)cc1)c1csc(CS(=O)(=O)Cc2ccco2)n1
  -0.51 | -1.3
- O=CN1CCN(C(=O)CC(c2ccccc2)c2cc(Br)ccc2O)CC1 (stereo not given)
  0.73 | -3.3
- CCCC1=C(C(=O)OCC)C(c2ccccc2Cl)C(C#N)=C(SC)N1 (stereo not given)
  . | -0.9
- COC(=O)c1scc(S(=O)(=O)Cc2ccco2)c1NN=C(C#N)C#N
  -0.24 | 1.0
- Cc1cccc(Nc2nnc(SCC#N)s2)c1
  . | -0.1
- CCN(CC)Cc1c(O)ccc2c(=O)c(-c3ccccc3OC)coc12
  0.55 | -1.5
- CC(C)N(CC(=O)N1c2ccccc2CC1C)Cc1ccccc1 (stereo not given)
  . | 1.9
- CCNS(=O)(=O)c1ccc(OC)c(C(C)(C)C)c1
  -0.26 | 0.3
- COc1cc(C#N)ccc1OC(=O)C(CCSC)N1C(=O)c2ccccc2C1=O (stereo not given)
  . | -0.8
- CNC(=O)c1cccc(S(=O)(=O)N(C)C)c1
  -0.91 | 0.9
- Cc1nc(C)c(C(=O)NCCc2nc3ccccc3[nH]2)s1
  -0.42 | 2.1
- FC(F)(F)c1ccc(CSc2ncnc3c2oc2ccccc23)cc1
  -0.25 | -2.0
- N#Cc1cnn(-c2ccccc2)c1C(F)(F)F
  2 | .
- Cc1oc2c(c1C(=O)NCc1ccccn1)C(=O)c1ccccc1C2=O
  0.68 | 3.1
- O=c1[nH]c(=O)n(-c2ccccc2)[nH]1
  . | 1.5
- CS(=O)(=O)Nc1cccc(C(=O)O)c1
  . | 0.7
- CCn1c2ccccc2c2cc(/C=C(\C#N)S(=O)(=O)c3ccccc3)ccc21
  -1.4 | -5.6
- CC(=O)Nc1c(Cl)n(C(C)=O)c2ccccc12
  0.62 | -1.3
- CCN(C(=O)CC(C)C)c1nnc(-c2ccccc2C)s1
  -0.14 | -1.4
- Cc1nn(C(=O)c2ccccc2)cc1-c1nsc(Nc2ccccc2)n1
  . | 1.0
- Cn1ccsc1=NC(=O)/C=C/c1ccc(S(=O)(=O)N2CCCCCC2)cc1
  . | -1.9
- COC(=O)C1CCN(C(=O)CSc2nnc3n(-c4c(C)cccc4C)c(=O)c4ccccc4n23)CC1
  . | 0.9
- S=C1SCN(Cc2ccccc2)CN1Cc1ccccc1
  . | 1.1
- CNC(=O)COC(=O)c1ccccc1C(=O)c1ccccc1
  . | 1.0
- CC(C)OC(=O)c1cc2c(ccn2C)n1CC(=O)N(Cc1ccccc1)c1ccccc1
  0.08 | 0.8
- O=C(NC(=S)Nc1nncs1)c1ccccc1
  . | 4.1
- Clc1nc2sccn2c1C=Nc1ccccc1
  0.47 | .
- CCOc1ccc(N=C(N)N=C(N)N)cc1
  -0.39 | -0.6
- CC(C)c1ccc(OCCCN2CCCC2)cc1
  . | 3.2
- CN(C)c1ccc(C(=O)NCc2ccc(S(N)(=O)=O)cc2)cc1
  0.82 | -0.2
- NS(=O)(=O)c1ccc(-c2ccc(C3Nc4ccccc4-c4nc5ccccc5n43)o2)cc1 (stereo not given)
  -0.58 | 3.0
- CN(C)c1ccc(-c2nc(-c3cccc(I)c3)cc(=O)o2)cc1
  . | -28
- CC1(C)C2CC=C(/C=N/NC(=O)c3ccc(O)cc3)C1C2 (stereo not given)
  . | -7.2
- Cc1cc(=O)n2[nH]cc(C(=O)O)c2n1
  -1.4 | 1.3
- O=C1NN=C2C3CC(CC12)C1=NNC(=O)C1C3 (stereo not given)
  0.8 | 4.6
- c1ccc(Nc2ncnc3cc(-c4ccccc4)sc23)cc1
  . | 0.3
- CC1CCCCN1S(=O)(=O)c1ccc(C(=O)Nc2ccc3c(c2)C(=O)NC3=O)cc1 (stereo not given)
  -0.37 | 4.3
- CSC1(N2CCc3ccccc3C2)NN=C(C)C(=O)N1 (stereo not given)
  0.28 | 1.8

Some of these compounds in order of SMILES length, ascending.
Values run as follows: KSHV LANA nucl | BasE inh
- O=C(NC(=S)Nc1nncs1)c1ccccc1
  . | 4.1
- CN(C)c1ccc(C(=O)NCc2ccc(S(N)(=O)=O)cc2)cc1
  0.82 | -0.2
- CC(C)OC(=O)c1cc2c(ccn2C)n1CC(=O)N(Cc1ccccc1)c1ccccc1
  0.08 | 0.8
- NS(=O)(=O)c1ccc(-c2ccc(C3Nc4ccccc4-c4nc5ccccc5n43)o2)cc1 (stereo not given)
  -0.58 | 3.0

Remaining list, next part:
Values run as follows: KSHV LANA nucl | BasE inh
- O=C(COc1ncnc2sccc12)NCc1ccccc1
  . | -1.8
- Cc1ccc(Nc2cc(C)nc(-c3ccccc3O)n2)cc1
  -0.25 | 2.0
- CC(C)c1cc(C(=O)O)nc2ncnn12
  0.77 | 1.4
- CCn1cnc2c1c(=O)n(CC(=O)O)c(=O)n2Cc1ccccc1
  . | -1.4
- O=C(CN1CCN(C(=O)c2ccccc2)CC1)NCC(F)(F)F
  . | -0.2
- Cc1cc(N)n(C)c(=O)c1
  . | 15
- NC(=O)CN1CCN(c2ccccn2)CC1
  -1 | 2.3
- N#CC1(NC(=O)COC(=O)c2nccnc2N)CCCCC1
  . | -3.3
- COc1ccc(S(=O)(=O)CC(C)(O)CS(=O)(=O)c2ccc(OC)cc2)cc1
  . | 3.0
- C=CCC1C=C(C=C)CC(CC=C)N1 (stereo not given)
  -0.95 | 0.6
- CCN(C(=O)c1ccc(-n2cnnn2)cc1)C12CC3CC(CC(C3)C1)C2
  . | -1.5
- COc1ccc(-c2nnn(CC(=O)Nc3sc4c(c3C#N)CCCC4)n2)cc1
  0.64 | 0.0
- COc1cc2ccc(=O)oc2cc1OC
  . | 2.5
- CCOc1cccc(C(=O)Nc2ccc(Cl)cn2)c1
  -0.84 | -0.1
- CC(=O)N1CCC(C(=O)NCc2ccc(-c3cccs3)cc2)CC1
  -0.56 | .

Another view of part of the listing above.
> CC(C)c1ccc(OCCCN2CCCC2)cc1
  KSHV LANA nucl = . | BasE inh = 3.2

> CCn1cnc2c1c(=O)n(CC(=O)O)c(=O)n2Cc1ccccc1
  KSHV LANA nucl = . | BasE inh = -1.4

> CCOc1ccc2oc(C(C)(C)C)c(C(=O)OC)c2c1
  KSHV LANA nucl = 0.61 | BasE inh = -1.7

> O=C(NC(=S)Nc1nncs1)c1ccccc1
  KSHV LANA nucl = . | BasE inh = 4.1

Additional structures.
Values run as follows: KSHV LANA nucl | BasE inh
- CCOc1ccc(S(=O)(=O)NCCC(=O)N=c2sc3ccccc3n2C)cc1
  . | -0.2
- N#Cc1nc(Cc2ccccc2)oc1NCc1ccco1
  1.4 | -3.6
- CCOC(=O)N1CCN(C2CCN(CC)CC2)CC1
  -1.1 | 1.3
- COc1ccc2nc(C)cc(Oc3ccc4c(c3)OCO4)c2c1
  . | 2.1
- Cc1ccc2c(c1)NC(=O)C(CC(=O)NCCN1CCN(c3cc(Cl)ccc3C)CC1)O2 (stereo not given)
  0.25 | -0.1
- CC(NC(=O)NCC1CCCO1)(C(F)(F)F)C(F)(F)F (stereo not given)
  0.19 | 5.8
- COC(=O)c1cn(-c2ccccc2)nc1C(=O)OC
  -1 | 1.7
- Cc1ccc(C(c2nnnn2C2CCCC2)N(C)C2CCCCC2)cc1 (stereo not given)
  -0.66 | -0.8
- O=C(O)C1CCC(c2ccccc2)CC1 (stereo not given)
  0.57 | -0.7
- Nc1c2c(nc3cccc(F)c13)OCCC2
  -1.1 | -0.4
- CC(C)(C)OC(=O)c1c(F)c(F)c(F)c(F)c1F
  0.2 | 1.3
- O=C(C1CCCO1)N1CCN(Cc2ccccc2F)CC1 (stereo not given)
  -0.17 | -1.0
- O=C(O)C1Cc2ccccc2CN1C(=O)CSc1nnc(-c2ccncc2)o1 (stereo not given)
  . | 1.1
- O=C(c1ccccc1)c1ccsc1
  0.094 | 1.3
- CCSc1nnnn1-c1ccccc1
  -0.76 | 0.9
- CCN(CCN(C)C)C(=O)c1cc2c(s1)-c1c(C)cccc1OC2
  -0.23 | -13
- O=C1c2ccccc2C(=O)C1C1c2ccccc2Oc2ccccc21
  . | 0.7
- COc1ccc2c(c1)CC(C1(O)C(=O)N(C)c3ccccc31)C2=O (stereo not given)
  1.6 | 0.4
- Cc1ccc(NC(=S)N(CCC#N)C2CCCCC2)cc1
  . | 2.4
- C=CCNC(=S)N/N=C1\C=C(C)CC(C)(C)C1
  . | -0.1
- CC(C(=O)NCc1ccco1)n1nc(-c2ccccc2)c2cc(Cl)ccc21 (stereo not given)
  -0.68 | 3.7
- Cc1cc(=O)n2[nH]c(NC(=O)c3ccc(C(C)(C)C)cc3)nc2n1
  -0.2 | 1.1
- O=c1sc2ccccc2n1Cc1nnc(-c2ccccc2)o1
  -0.2 | -1.4
- O=c1c2c(nc3cc(-c4cccc(Cl)c4)[nH]n13)CCCC2
  -0.26 | 0.2
- Cc1cccc(N2CCN(CCNC(=O)CCc3nnc4n(CCCOC(C)C)c(=O)c5ccccc5n34)CC2)c1C
  2.7 | -1.0
- O=C(O)c1cccc(COc2cccc(Cl)c2)c1
  0.13 | 1.5
- CCCSc1nnc(NC(=O)C(CC)CC)s1
  -0.57 | 1.9
- Cc1nnc(N(C)C(=O)CNC(=O)c2ccccc2)s1
  0.38 | 4.7
- COc1ccc(CCN2C(=O)CC(NNc3ccccc3)C2=O)cc1OC (stereo not given)
  0.23 | 0.0
- Cc1cc(-c2csc(NC=C(C#N)C#N)n2)c(C)n1CCC(C)C
  . | -11
- N#CCn1c(=O)n(C2CCCCC2)c(=O)c2ccccc21
  -1.5 | -0.3
- CCCC12CN3CC(C)(CN(C1)C31CCN(Cc3ccccc3)CC1)C2=O
  -0.19 | 1.5
- Cc1nnc(SC2CCN(S(=O)(=O)c3ccc4c(c3)OCCO4)CC2)s1
  -0.38 | -0.4
- COc1ccc(NC(=S)c2nc(N3CCCCC3)sc2N)cc1
  . | 0.8
- COc1ccc(CCNC2CC(=O)N(Cc3ccccc3)C2=O)cc1OC (stereo not given)
  -1 | 1.7
- O=C(COCc1cc(-c2ccc(F)cc2)on1)NCCN1CCCC1
  1.3 | -12
- O=C(Nc1ccc(N2CCCCC2)cc1)c1cccs1
  0.47 | -2.3
- Cc1ccc(NC(=S)NN(C)C)cc1C
  -0.66 | 2.6
- O=C1c2ccccc2C(=O)N1CC(=O)n1nnc2ccccc21
  . | -0.4
- COC(=O)CCC(=O)Nc1ccc2oc3c(c2c1)CCCC3
  -1.6 | -1.3
- Cc1nn(CC(=O)NC2C3CC4CC(C3)CC2C4)c(=O)c(C#N)c1C (stereo not given)
  . | 3.2
- CC1(C)c2ccccc2N2CC(=O)NC21/C=C/c1ccc(N2CCOCC2)cc1 (stereo not given)
  . | 2.9
- N#Cc1c(SCC(=O)c2ccc3c(c2)OCO3)sc2c(=O)[nH]c(=O)[nH]c12
  2.5 | -3.5
- O=c1cc(CSc2nnc(CN3CCCCC3)n2Cc2ccccc2)nc2sc3ccccc3n12
  . | 2.8
- CC1(C)ONC(=O)N(c2ccccc2)C1=O
  . | -2.3
- CN(C(=S)NCc1ccccc1)c1ccc(O)cc1
  . | 2.7
- CC(C)n1nccc1NC(=O)COC(=O)c1ccc(NC(N)=O)cc1
  . | 1.8
- CCOC(=O)Oc1c(OC)cc(C(=O)OC2CC3CN4CCc5c([nH]c6cc(OC)ccc56)C4CC3C(C(=O)OC)C2OC)cc1OC (stereo not given)
  1.2 | -3.5
- COc1ccc(-n2nnnc2-c2ccccc2)cc1
  -0.013 | -0.3
- Cc1cc(C)n(CCCNC(=O)c2ccccc2CSc2ncn[nH]2)n1
  . | 3.7

Bioassay records from PubChem.

A portion of the library (hit frequency here may not be typical).
